# Rango release inh: qHTS Assay for Inhibitors of RanGTP induced Rango (Ran-regulated importin-beta cargo) - Importin beta complex dissociation; Snurportin-1 (Homo sapiens) + GTP-binding nuclear protein Ran (Homo sapiens) + Importin …; Biochemical FRET Rango-importin beta, RanGTP-induced dissociation; Potency, µM (doses to about 46.1 µM), without a hit: at the highest dose activity change, negative = inhibition; 340,000 tested, 0.071% active; active means falling FRET ratio curve, often poorly fitted, with flat reads before Ran was added; inconclusive means other falling curves, or compound fluorescence or quenching; inactive means flat or rising ratio curve;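 also: potency is read from the fitted curve at half-maximal effect; % of control where 0% means no effect; nearly all actives have a fitted effect of over 45% in size; -100% = wells without RanGTP and RCC1; the record marks most hits as doubtful in a second field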
#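 Two FRET readings bracket the reaction: one 5 min after compound meets Rango–importin beta, another 45 min after RanGTP-RCC1 (0.6 uM Ran, 0.2 uM RCC1, 2 mM GTP) is added. Only the second defines inhibition.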
# Rango complex inh: qHTS Assay for Inhibitors of Rango (Ran-regulated importin-beta cargo) - Importin beta complex formation; Rango CFP/YFP FRET sensor + importin beta, 45 min; Potency, µM (highest dose often 92.2 µM), inactives show at the highest dose inhibition of complex formation; 340,000 tested, 0.031% active; AID 540263, 2011; active = rising FRET ratio curve, often small or poorly fitted; inconclusive = mostly compound fluorescence or quenching in the first reads; inactive = flat curves in all reads;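 also: potency is read from the fitted curve at half-maximal effect; 0% = DMSO wells and 100% = buffer wells lacking importin beta; nearly all actives have a fitted effect of over 15% in size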
# Target sequence (Q14974 whole entry, looked up): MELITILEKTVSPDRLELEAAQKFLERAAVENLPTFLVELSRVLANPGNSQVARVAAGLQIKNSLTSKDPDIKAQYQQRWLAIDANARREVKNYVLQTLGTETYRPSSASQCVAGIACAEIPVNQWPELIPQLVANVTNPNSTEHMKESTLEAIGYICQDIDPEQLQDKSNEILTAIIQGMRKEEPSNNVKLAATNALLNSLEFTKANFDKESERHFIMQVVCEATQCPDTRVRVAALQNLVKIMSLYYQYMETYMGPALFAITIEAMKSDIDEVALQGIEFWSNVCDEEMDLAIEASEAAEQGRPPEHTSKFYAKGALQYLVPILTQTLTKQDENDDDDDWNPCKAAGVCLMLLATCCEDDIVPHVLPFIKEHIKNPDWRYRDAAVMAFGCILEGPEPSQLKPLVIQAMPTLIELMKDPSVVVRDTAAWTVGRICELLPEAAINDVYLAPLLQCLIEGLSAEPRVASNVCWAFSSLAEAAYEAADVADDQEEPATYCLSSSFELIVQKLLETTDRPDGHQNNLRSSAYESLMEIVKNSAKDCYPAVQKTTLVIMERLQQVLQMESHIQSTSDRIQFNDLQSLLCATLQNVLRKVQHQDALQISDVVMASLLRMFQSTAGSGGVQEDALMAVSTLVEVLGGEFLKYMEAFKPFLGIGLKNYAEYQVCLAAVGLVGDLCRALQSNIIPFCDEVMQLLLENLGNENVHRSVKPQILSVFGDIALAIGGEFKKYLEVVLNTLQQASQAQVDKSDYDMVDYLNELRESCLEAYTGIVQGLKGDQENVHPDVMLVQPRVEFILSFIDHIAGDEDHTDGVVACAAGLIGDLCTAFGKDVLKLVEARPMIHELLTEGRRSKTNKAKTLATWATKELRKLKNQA
#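 FRET biosensor Rango (snurportin 1 IBB between N-terminal EYFP and C-terminal Cerulean), 50 nM in PBS/1 mM DTT/0.02% Tween-20/0.1% BSA, preincubated 5 min RT with compound; 0.125 microM importin beta added, 45 min RT, CFP/YFP FRET ratio read.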
# miR-21 reporter: qHTS Assay for Modulators of miRNAs and/orActivators of miR-21. Potency, µM (doses to about 38.3 µM), for inactives: at the top dose reporter change, positive = more light. 340,000 tested, under 10 active. HeLa miR-21 FLuc reporter, luciferase, 48 h; active = well fitted rising curve with a large enough effect; inconclusive = small, poorly fitted or top-dose-only effect; inactive = no such curve, though single readings can be large or run the other way;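 also: % of control where 0% means no effect; miR-21 action dims this reporter so a rising signal means less miR-21 action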
#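 Using DMEM plus 10% FBS, HeLa miR-21-FLuc cells are incubated with test compounds (final up to about 40uM) for 48 hours; firefly luciferase signal is then imaged following reagent-mediated lysis.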
# GLA inh pH 4.5: qHTS Assay for Inhibitors of Human alpha-Galactosidase at pH 4.5 | 230,000 tested, under 10 active | AID 1467, 2008 | purified enzyme, 4-MU-alpha-Gal fluorescence, pH 4.5 | activity change, negative = inhibition, % at 105 µM; inconclusive = small, poorly fitted or top-dose-only inhibition, or a rising curve; inactive = flat fitted curve, though single readings scatter; no compound was filed as active;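 also: 0% = full activity with enzyme and -100% = basal without enzyme; dose as in the result columns while the protocol names 77 µM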
# Active calls of the source: *; ? = inconclusive; nt = not tested or not shown; & = joins results of further samples.
SMILES,Rango release inh,Rango complex inh,miR-21 reporter,GLA inh pH 4.5
COc1ccc(CCNCc2c(OC)ccc3ccccc23)cc1OC,12%,0.1%,1%,nt
CC(C)=CCC/C(C)=C/COc1ccc2ccc(=O)oc2c1,-22%,-1.2%,1%,6&12&-19
CC(C)C(OC(=O)c1ccco1)C(=O)NC1CCCC1 (centres undefined),6%,-3.7%,0%,nt
COc1ccc(NC(=O)c2ccco2)cc1NC(=O)c1ccco1,29%,0.1%,-8%,2
O=C1/C(=C/c2ccco2)Cc2ccccc21,-19%,0.0%,-32%,-8
O=C(NCc1cn2ccccc2n1)C1CCC(=O)N(Cc2ccccc2F)C1 (centres undefined),9%,0.3%,0%,nt
CCOC(=O)c1ccc(S(=O)(=O)Nc2cc(S(=O)(=O)Nc3ccc(OC)cc3)ccc2O)cc1,?,-0.5%,nt,nt
CC(C(=O)NC1CCCCCC1)N(c1ccccc1)S(C)(=O)=O (centres undefined),7%,0.3%,-4%,2
CC/C(=N/Nc1ccc(Cl)cc1)c1cnnc(SC)n1,1%,-1.2%,-7%,11
CC(C)N(Cc1ccccc1)C(=O)COC(=O)c1cc(S(=O)(=O)N(C)C)ccc1N1CCCC1,22%,?,nt,nt
Cc1ccc(C)c(S(=O)(=O)Nc2ccc3cn[nH]c3c2)c1,0%,1.2%,nt,nt
N#Cc1c(/N=C/c2cccnc2)sc2c1CCCC2,-7%,-0.1%,4%,5

# Complete entries, quoted from the list. Order of values: Rango release inh	Rango complex inh	miR-21 reporter	GLA inh pH 4.5
# COc1ccc(NC(=O)c2ccco2)cc1NC(=O)c1ccco1 in the list: 29%	0.1%	-8%	2
# CC/C(=N/Nc1ccc(Cl)cc1)c1cnnc(SC)n1 in the list: 1%	-1.2%	-7%	11
# N#Cc1c(/N=C/c2cccnc2)sc2c1CCCC2 in the list: -7%	-0.1%	4%	5
# CC(C)C(OC(=O)c1ccco1)C(=O)NC1CCCC1 (centres undefined) in the list: 6%	-3.7%	0%	nt
# O=C(NCc1cn2ccccc2n1)C1CCC(=O)N(Cc2ccccc2F)C1 (centres undefined) in the list: 9%	0.3%	0%	nt

# Next part
SMILES,Rango release inh,Rango complex inh,miR-21 reporter,GLA inh pH 4.5
CC(C)/C=C1\CC/C(=C\c2cccnc2)C1=O,-2%,0.7%,27%,-4
CC1(C)Cc2c(c(-c3ccccc3)nc(N3CCOCC3)c2C(N)=O)CO1,-8%,0.5%,-2%,1
Fc1ccccc1N1CCN(CCCc2ccccc2)CC1,3%,-0.9%,-9%,nt
COc1ccc(-c2[nH]ncc2/C=N\NS(=O)(=O)c2ccccc2)cc1OC,-2%,-4.0%,3%,-8
COc1ccc(CNC(=S)N/N=C/c2ccncc2)cc1,-7%,-0.1%,-8%,-1
O=C(NCc1c(O)ccc2ccccc12)c1ccccc1,11%,-1.5%,4%,nt
CC(C)(C)S(=O)(=O)c1cnc2c(-c3ccc(F)cc3)cnn2c1N,2%,4.2%,-8%,1
COc1ccc(OC)c(C(=O)COC(=O)CNC(=O)C2CCCCC2)c1,4%,0.3%,-4%,-6
CCOC(=O)C1CCCN(C(=O)c2sc3nc(C)nc(N4CCOCC4)c3c2C)C1 (centres undefined),1%,-5.3%,-13%,-5
O=[N+]([O-])/C(C(Cl)=C(Cl)Cl)=C1\Nc2ccccc2O1,-3%,1.8%,-19%,?
Cc1ccc(OCC(=O)Nn2cnnc2)c(Br)c1,-8%,-1.9%,-2%,6
Cc1c(NC(=O)c2ccccc2NC(=O)COc2ccccc2)cccc1C(=O)O,38%,-1.3%,-10%,nt
Cc1cccc(NN=C2c3ccccc3-c3ccccc32)c1,-1%,2.3%,-13%,2
CC(=O)c1c(C)oc2ccc(NS(=O)(=O)c3cccs3)cc12,-30%,?,5%,5
Cc1c(NC(=O)Nc2ccc(F)cc2)c(=O)n(-c2ccccc2)n1C,0%,1.0%,0%,nt
O=C(NCCCn1ccnc1)c1ccc(N2CCCCCC2)c([N+](=O)[O-])c1,-8%,-3.2%,?,-13
OC(Cn1cnnc1)c1ccccc1 (centres undefined),30%,4.2%,-7%,nt
COc1ccc(C(c2c(NC(=O)c3ccco3)sc(C)c2C)N2CCOCC2)cc1OC (centres undefined),13%,-0.5%,nt,nt
CC(CCC(=O)NN)C1CCC2C3CCC4CC(O)CCC4(C)C3CCC12C (centres undefined),7%,1.6%,nt,nt
COc1ccc(-n2c3c(cc(C(=O)N4CCN(CCO)CC4)c2=O)C(=O)CC(C)(C)C3)cc1,5%,11%,-9%,0
COc1ccc(CC(=O)OCC(=O)NC(=O)NC2CCCCC2)cc1,-16%,-5.5%,-3%,-3
O=C(C(=O)N1CCCc2ccccc21)c1c[nH]c2ccccc12,-7%,1.2%,1%,-4
CN(CCCCCCCCCCN(C)C(=O)Oc1cccc([N+](C)(C)C)c1)C(=O)Oc1cccc([N+](C)(C)C)c1,-12%,-0.2%,nt,nt
Cc1cccc(C(=O)NC(NCc2ccco2)C(Cl)(Cl)Cl)c1 (centres undefined),-14%,0.0%,0%,0
CC(CCc1ccccc1)NC(=O)C1CCN(S(=O)(=O)N2CCOCC2)CC1 (centres undefined),18%,0.5%,0%,0
CC(C)NC(=O)NC(=O)COC(=O)c1cc(S(=O)(=O)N2CCCCC2)ccc1N1CCOCC1,11%,-0.2%,-6%,nt
COC1CCCCC1Nc1cccc(SC)c1 (centres undefined),-8%,-4.9%,-8%,3
COc1ccc(-c2noc(CN3CCCCC3)n2)cc1OC,-10%,-2.6%,-23%,-16
COc1ccc(C2CC(c3ccc(Br)cc3)=NN2C(=O)CCC(=O)O)cc1OC (centres undefined),0%,0.2%,-5%,nt
CCOC(=O)Cc1csc(NC(NC(=O)CC)(C(F)(F)F)C(F)(F)F)n1,3%,-0.7%,-3%,6
CC(C)N1CCN(Cc2ccoc2)CC1CCO (centres undefined),-2%,-0.3%,0%,5
COc1ccc2cc3cc(C(=O)NCCc4ccc(OC)c(OC)c4)oc3nc2c1,-8%,-0.1%,14%,12
CC(C)(O)c1cc2ccccc2c(=O)o1,-1%,-4.4%,nt,nt
COc1ccc(Br)c(OC)c1C(=O)NC(=O)Nc1c(F)cccc1F,-15%,5.6%,-5%,nt
O=C(CS(=O)(=O)c1cccc(C(F)(F)F)c1)Nc1ccccc1Cl,16%,-3.7%,-1%,-19
CCN1CCN(C(=O)C2CC(=O)N(c3ccc(Cl)cc3)C2)CC1 (centres undefined),-4%,-2.9%,0%,nt
CCOc1ccc(N2CC(C(=O)Nc3cc(Cl)ccc3-n3cncn3)CC2=O)cc1 (centres undefined),14%,0.6%,nt,nt
CCOc1ccc(CN(CCO)CCO)cc1[N+](=O)[O-],2%,4.5%,3%,4
O=C(Nc1ccc(-c2nc3ncccc3o2)cc1)c1ccco1,-8%,-6.1%,-66%,-4
Cc1ccc(NC(=O)CN(C)C(=O)c2cccc(S(=O)(=O)N3CCc4ccccc43)c2)cc1,25%,-0.1%,nt,nt
N#C/C(=C/c1ccc(O)cc1)C(=O)NCc1ccc(Cl)cc1,?,?,-1%,nt
CCCCCCC(=O)N/N=C/c1ccco1,-7%,0.7%,-6%,1
CCOc1ccc2nc(NC(=O)CN3C(=O)C4CCCCC4C3=O)sc2c1 (centres undefined),5%,0.5%,nt,nt
O=C(O)c1cccc(S(=O)(=O)Nc2cccc(S(=O)(=O)N3CCCCCC3)c2)c1,-11%,0.3%,-3%,-13
CC(=O)Nc1ccc(-c2csc(Nc3ncccn3)n2)cc1,24%,-0.4%,-56%,-5
O=C(NCc1ccccc1)C1=C[C@H](C2CCCCC2)C[C@H](OCCCCO)O1,-6%,1.7%,nt,nt
CN1CCN(C(=O)CCN2C(=O)/C(=C\c3ccc(F)cc3)SC2=S)CC1,11%,2.4%,nt,nt
CC(C)C[C@H](NC(=O)c1[nH]cnc1C(=O)N[C@@H](Cc1ccccc1)C(=O)OC(C)(C)C)C(=O)OCc1ccccc1,-7%,-1.1%,5%,nt
N#Cc1ccc(COC(=O)CN2C(=O)NC3(CCCC3)C2=O)cc1,0%,6.4%,nt,nt
O=S(=O)(Cc1ccccc1Cl)N1CCN(Cc2ccc3c(c2)OCO3)CC1,-8%,-5.1%,1%,2
Cc1ccc(NC(=O)CCC(=O)NNC(=O)CCc2ccccc2)c(C)c1,7%,3.0%,9%,-12
COc1ccc(N(CC(=O)NCC2CCCO2)C(=O)CCC(=O)Nc2nccs2)cc1 (centres undefined),17%,0.0%,nt,nt
Cc1ccccc1S(=O)Cc1ccc(C(=O)NCCCN2CCCCC2)o1 (centres undefined),-7%,-1.7%,-3%,nt
COc1ccc(NC(=O)CCC(=O)c2cccs2)cc1S(=O)(=O)Nc1ccccc1Cl,5%,2.4%,8%,4
COC(=O)/C(C#N)=C/c1c(Oc2cc(C)cc(C)c2)nc2ccccn2c1=O,4%,-3.5%,-3%,1
COc1ccc(CCNc2ccc(C(CC(N)=O)NC(=O)Cc3ccc(Br)cc3)cc2[N+](=O)[O-])cc1 (centres undefined),9%,-0.3%,-2%,-1
CCC(=O)Nc1nnc(SCC(=O)Nc2ccc3c(c2)OCCO3)s1,1%,0.2%,-6%,nt
Cc1cc(C)nc(NN=CC2=C(N3CCOCC3)/C(=C/c3ccc(Cl)cc3)CC2)n1,?,?,nt,nt
O=C(Cn1cc(C(F)(F)F)cc(Cl)c1=O)NCc1ccc(Cl)cc1,10%,-3.9%,4%,nt
O=C(c1cccs1)N1CCC(c2nc3c(nnn3Cc3ccccc3)c(=O)[nH]2)CC1,11%,-0.5%,-2%,4
# (further entries)
SMILES,Rango release inh,Rango complex inh,miR-21 reporter,GLA inh pH 4.5
CCOC(=O)NC1(C(F)(F)F)C(=O)N(Cc2ccccn2)C2=C1C(=O)CC(C)(C)C2 (centres undefined),?,-0.4%,4%,6
O=C(O)CC1(CC(=O)N2CCC(C(=O)O)CC2)CCCC1,-3%,-2.4%,-1%,nt
Cc1[nH]ccc(=O)c1OCc1ccccc1,-10%,-0.8%,-4%,-5
CCOC(=O)c1nc(S(C)(=O)=O)ncc1Cl,2%,-5.8%,?,-4
C=CCNC(=S)N/N=C/c1ccc(N(CC)Cc2ccccc2)cc1,-11%,?,22%,1
CCN1C(=O)/C(=C\N(C(C)=O)c2ccccc2)OC1=S,-5%,0.1%,-33%,-3
CC(C)NC(=O)C(=O)Nc1ccc2c(c1)N(S(=O)(=O)c1cccs1)CCC2,0%,-1.3%,nt,nt
CN(C)CCCN(Cc1ccccc1)C(=S)Nc1ccc(OC(F)F)cc1,0%,4.6%,-8%,-3
COc1ccc(C2C(C#N)=C(N)Oc3c2sc2nc(C)cc(C)c32)cc1 (centres undefined),?,?,-6%,7
CN1CC(=O)Nc2ccccc2C1=O,?,0.0%,0%,nt
CCOC(=O)c1ccc(NC(=O)c2ccco2)cc1,-22%,-0.5%,-44%,nt
O=C(COC(=O)c1ccc([N+](=O)[O-])o1)Nc1cccc2ccccc12,-5%,0.7%,9%,12
CC(=O)Nc1ccc(/C=N\NC(=O)CNS(=O)(=O)c2ccc([N+](=O)[O-])cc2)cc1,26%,0.3%,0%,-12
COc1ccc(OC)c(C(C)NC(=O)C23CC4CC(CC(C4)C2)C3)c1 (centres undefined),12%,-1.8%,2%,nt

# Compounds from the list above that have a tert-butyl group (two):
SMILES,Rango release inh,Rango complex inh,miR-21 reporter,GLA inh pH 4.5
CC(C)(C)S(=O)(=O)c1cnc2c(-c3ccc(F)cc3)cnn2c1N,2%,4.2%,-8%,1
CC(C)C[C@H](NC(=O)c1[nH]cnc1C(=O)N[C@@H](Cc1ccccc1)C(=O)OC(C)(C)C)C(=O)OCc1ccccc1,-7%,-1.1%,5%,nt

# Screening results: PubChem, National Center for Advancing Translational Sciences (NCATS)

# These rows are one share of the data; count on the stated rates, not on these rows.
